# Bioassay records from PubChem.
# Menin-MLL FL inh – menin-MLL binding inhibition, fluorescein peptide. Fluorescence polarization, fluorescein-MLL peptide displacement from menin. FP activity change, % at 61.4 µM. AID 1766. 290,000 tested, under 10 active; inconclusive = falling polarisation curve, or a change in total fluorescence; inactive = total fluorescence flat and polarisation flat or rising; no compound was filed as active; the % refers to the polarisation; negative = inhibition;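 also: % of control where 0% means no effect; inhibitors lower the polarisation; unlabelled MLL peptide was the positive control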
# gsp ag – agonists of gsp mutant (McCune-Albright syndrome); Potency, µM (titrated, usually from 76.9 µM), for inactives: top-dose activation (cAMP increase), usual class: activators; gsp mutant cells, cAMP HTRF, 30 min; control for the full effect not named in the record; 0.13% of 340,000 active; active = well fitted activation curve with a large enough effect; inconclusive = small, poorly fitted or top-dose-only effect, or another doubt; inactive = no such curve, though single readings can be large or run the other way; cell line not stated here;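 also: phosphodiesterase inhibitor Ro 20-1724 added with compounds to block cAMP breakdown; potency is read from the fitted curve at half-maximal effect; nearly all actives have a fitted effect of over 60% in size; about a fifth of the inactives were tested at one dose only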
#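 Cells stably selected in G418 were plated at 2000/well, grown 16-24 hr, then given compounds in DMSO with the PDE inhibitor […] (300 uM solution added) for 30 min at 37C; cAMP was read by HTRF.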
# gsp antagonist – antagonists of gsp mutant (McCune-Albright syndrome); gsp-mutant cells, cAMP HTRF, 30 min; control for the full effect not named in the record; Potency, µM (highest dose often 76.9 µM), inactives show top-dose activity change, negative = inhibition, most hits filed as inhibitors; 0.4% of 340,000 active; AID 624288; active = falling curve of any shape with a large fitted effect; inconclusive = falling curve, mostly with a smaller effect; inactive = flat or rising curve; cell line not stated here;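 also: intracellular cAMP measured with PDE inhibitor Ro 20-1724 present during compound exposure; potency is read from the fitted curve at half-maximal effect; % is scaled to controls: 0 for no effect and ±100 for the full control effect; nearly all actives have a fitted effect of over 65% in size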
#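 Cells, 2000/well, grown 16–24 h in DMEM 10% FBS with 0.5 mg/ml G418, then compounds plus […] (300 uM addition stock), 30 min at 37C. cAMP read by HTRF (cAMP-d2 and anti-cAMP antibody-K in lysis buffer) after 30 min RT.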
# TRPML1 inh – blocks the human TRPML1 channel. Q9GZU1. TRPML1-inducible cells, Ca2+ dye fluorescence, FDSS; hits give low values; inhibition of EC80 agonist-evoked calcium signal. activity change, negative = inhibition, % (concentration not given with the values). 0.02% of 390,000 active. AID 624415; in the data active means activity change below about -50%; inconclusive means about -30% to -50%; inactive means above about -30%;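 also: stimulus is agonist 54-4 at its EC80 concentration; % is scaled to controls: 0 for no effect and ±100 for the full control effect; compound concentration not given in the record; the text of the record puts the active cut at -80%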
# Target sequence (Q9GZU1 whole entry, looked up): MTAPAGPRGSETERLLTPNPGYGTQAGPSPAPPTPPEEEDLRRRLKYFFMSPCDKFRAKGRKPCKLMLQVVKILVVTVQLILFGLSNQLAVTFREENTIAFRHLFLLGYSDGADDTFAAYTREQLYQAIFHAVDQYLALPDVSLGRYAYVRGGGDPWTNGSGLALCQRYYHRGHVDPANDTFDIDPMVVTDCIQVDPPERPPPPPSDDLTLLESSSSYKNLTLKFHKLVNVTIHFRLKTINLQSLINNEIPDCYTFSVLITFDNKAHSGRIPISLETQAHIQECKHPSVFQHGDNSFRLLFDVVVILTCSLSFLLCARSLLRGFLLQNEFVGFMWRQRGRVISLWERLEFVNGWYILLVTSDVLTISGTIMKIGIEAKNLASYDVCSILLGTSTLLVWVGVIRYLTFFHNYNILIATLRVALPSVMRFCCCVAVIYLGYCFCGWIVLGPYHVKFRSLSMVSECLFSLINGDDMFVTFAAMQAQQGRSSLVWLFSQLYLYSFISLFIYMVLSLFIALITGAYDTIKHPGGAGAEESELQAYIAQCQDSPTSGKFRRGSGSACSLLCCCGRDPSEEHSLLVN
#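 Tet-induced TRPML1-DL cells loaded with Ca8 no-wash calcium dye were read kinetically on FDSS. Compound addition was followed by EC80 agonist 54-4 (4 uM final); inhibition was read over 110 s.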
# TRPML1 agonist – activates the human TRPML1 channel; Q9GZU1; TRPML1-expressing cells, Ca2+ dye fluorescence, FDSS; host cell line not named in the record; reference of the full effect not given here; activation, % (no concentration beside the values); 0.12% of 410,000 active; AID 624414; in the data active = activation above about 50%; inconclusive = about 30% to 50%; inactive = below about 30%; also: 0% is about no effect; the text of the record puts the active cut at 80%
#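 Calcium fluorescence on an FDSS kinetic reader gave the read-out. Tet-induced TRPML1-DL cells were plated overnight, dye-loaded (Ca8 with quencher, 45-90 min, room temperature, dark), then read 110 s after compound addition, and again 110 s after 4uM final 54-4 (EC80).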
# ClpP mod – qHTS Assay for Activators of ClpP; AID 651965, 2013; purified B. subtilis ClpP, FRET peptide cleavage, 20 min; 1.9% of 340,000 active; ATP-dependent Clp protease proteolytic subunit (Bacillus subtilis (strain 168)), P80244; Potency, µM (series often up to 57.5 µM), inactives show at the highest dose activity change, negative = active; active = well fitted falling curve with a large enough effect; inconclusive = small, poorly fitted or top-dose-only effect; inactive = no such curve, though single readings can be large or run the other way; also: potency is read from the fitted curve at half-maximal effect; the source files actives as falling curves though it sought activators and does not explain the sign; nearly all actives have a fitted effect of over 65% in size; many hits overshoot -100%
# Target sequence (P80244 whole entry, looked up): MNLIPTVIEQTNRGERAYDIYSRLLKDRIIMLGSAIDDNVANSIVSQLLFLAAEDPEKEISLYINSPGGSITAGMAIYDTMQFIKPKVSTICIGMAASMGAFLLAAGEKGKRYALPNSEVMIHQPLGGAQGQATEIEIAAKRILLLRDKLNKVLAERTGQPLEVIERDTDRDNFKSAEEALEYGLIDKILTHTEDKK
#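 ClpP 10 microg/mL final, pH 8 Tris/KCl buffer with BSA, glycerol, Tween-20; compound pinned in; FRET-FV substrate; RT 20 min; Ex320/Em430; ΔFRET vs ADEP 5.8 microM, DMSO, no enzyme.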
# * = called active by the depositor; ? = inconclusive; · = not tested or not shown; [ ] = another dose, or the depositor's remark.
SMILES,Menin-MLL FL inh,gsp ag,gsp antagonist,TRPML1 inh,TRPML1 agonist,ClpP mod
Cc1cc(OC(=O)CNC(=O)OC(C)(C)C)c2c(C)cc(=O)oc2c1,5.5,5%,12%,11,0.1,-4.0%
O=C(CN1CCN(Cc2cccc(Cl)c2)C1=O)NCc1ccc(F)cc1,·,·,·,-4,3.4,-0.1%
Cc1ccc(NC(=O)COC(=O)c2ccc(C)c(S(=O)(=O)N3CCOCC3)c2)cc1,·,28%,-14%,-6,-0.3,-1.0%
COc1ccc(-n2nc(N)c3c(=O)oc(N(C)C)nc32)cc1,1.5,6%,3%,-11,0.1,-0.7%
C[C@@H]1CN([C@@H](C)CO)C(=O)CCCn2cc(nn2)CO[C@H]1CN(C)S(=O)(=O)c1ccccc1F,·,?,·,8,-0.3,1.6%
CN(C)c1cc[n+](CC(=O)Nc2ccc(Cl)cc2)cc1,-5.2,-3%,8%,3,0.3,-2.9%
COc1ccccc1-n1c(SCC(=O)NCC2CCCO2)nc2c([nH]c3ccccc32)c1=O (stereo unspecified),·,-2%,2%,0,-0.9,-19%
Cc1onc(C(=O)Nc2cccc(C(F)(F)F)c2)c1[N+](=O)[O-],·,8%,5%,-8,-0.4,-0.7%
Cn1c(/C(C#N)=C(\O)c2ccccc2Cl)nc2ccccc21,·,6%,-12%,-14,-1.1,·
O=c1cc(-c2cccs2)oc2ccc(Cl)cc12,1.3,14%,-10%,1,0.0,?
Cc1ccc2c(c1)N(C(=O)CCC(=O)NCc1ccccc1Cl)CC(C)O2 (stereo unspecified),·,·,·,12,1.4,-3.3%
COc1ccc(C(=O)O)cc1NS(=O)(=O)c1cccc2nsnc12,-1.8,29%,-3%,8,-0.4,2.0%
Cc1ccc(-c2ccc(CN3C(C(C)C)C(=O)N(Cc4cn(Cc5ccco5)nn4)CCS3(=O)=O)cc2)cc1 (stereo unspecified),·,-36%[inhibitor],·,6,2.6,-1.5%
CCCN1CCC(NC(=O)Nc2ccc(Br)cc2)CC1,-1.0,13%,13%,8,0.5,-2.5%
COc1ccc(C/C(C)=N/NC(=O)c2ccc(C)cc2C)cc1,-0.1,10%,0%,9,0.5,·
Cc1cc(NC(=O)c2cc(C)on2)n(-c2ccccc2)n1,-0.4,-27%,5%,-2,-0.4,-2.8%
Cc1cc(CNC(=O)c2cccc([N+](=O)[O-])c2C)c2ccccc2n1,1.1,3%[15.4 µM],-15%,18,-0.8,-0.1%
O=C(N/N=C/C(Br)=C\c1ccccc1)c1ccc2nc[nH]c2c1,8.7,3%,-17%,4,-0.5,?
Cc1ccc(CS(=O)Cc2ccc(C(=O)NC3CCCC(C)C3C)o2)cc1 (stereo unspecified),0.4,?,-5%,17,-0.9,1.6%
CCOc1ccc(C(=O)N[C@H](C(=O)Nc2cccc(S(=O)(=O)N3CCCCC3)c2)C(C)C)cc1,4.2,-30%[inhibitor],10%,-3,1.0,-0.2%
Cc1ccc(S(=O)(=O)N(C)C)cc1NC(=O)COC(=O)c1n[nH]c(=O)c2ccccc12,-3.2,15%[15.4 µM],6%,13,-0.3,·
Cc1ccc(-n2c(=O)c3c(cnn3C)n(CC(=O)Nc3ccc(C)cc3C)c2=O)cc1,·,·,·,1,-0.3,-2.4%
Cc1cc2c(cc1NS(=O)(=O)c1ccc(F)cc1)n(C)c(=O)c(=O)n2C,·,·,·,-6,-0.5,-2.0%
N#C/C(Cn1c[n+](NC(=O)Nc2ccccc2)cn1)=N/O,2.3,-7%,6%,4,1.4,-1.1%
COc1cccc(NC(=O)CCNC(=O)C2CCN(S(=O)(=O)c3ccc(F)cc3)CC2)c1,·,-13%,-9%,0,-1.0,0.2%
CCCc1cc(=O)[nH]c(SCC(=O)N2CCc3cc(OC)c(OC)cc3C2)n1,·,-28%,-19%,12,0.5,-4.8%
N#CCCn1cc(/C=N/O)c(-c2ccc(F)cc2)n1,0.4,13%,0%,19,-0.5,-1.0%
O=C(Cc1ccccc1)Nc1cccc(-c2nc3ncccc3o2)c1,7.3,-2%,-4%,-9,1.9,28µM*
C1=C(c2ccccc2)Nc2ccccc2N=C1c1ccccc1,-1.6,-6%,-31%,-25,1.8,2.6%
CCOc1cc(N2CCOCC2)c(OCC)cc1NC(=O)C(C)Oc1ccccc1 (stereo unspecified),·,2%,0%,-12,2.5,·
Cc1ccc(OCC(=O)N(c2ccccn2)C2CCCCC2)c(C)c1,3.7,?,-6%,-12,1.5,-1.4%
N#C/C(=C\c1cc([N+](=O)[O-])c(N2CCOCC2)cc1N1CCOCC1)c1nc2ccccc2[nH]1,1.1,-4%,14%,-6,-0.6,-1.7%
Nc1ccc(Cl)c[n+]1Cc1cccc2cccnc12,2.7,-12%,7%,0,0.0,-7.7%
CC(=O)c1ccc(S(=O)(=O)NC2CC(=O)N(c3ccc4c(c3)OCCO4)C2)cc1 (stereo unspecified),·,20%[15.4 µM],-7%,36,-0.6,·
NC(=O)c1nn(-c2ccccc2)nc1NC(=O)CN1CCCCC1,-0.1,-16%,4%,-6,-0.5,?
COc1ccc(OC)c(NC(=O)c2cnc(Nc3ccc(C)c(Cl)c3)c3ccccc23)c1,·,·,·,-12,-0.1,3.7%
CN(CC(=O)Nc1cccc(S(=O)(=O)N(C)c2ccccc2)c1)Cc1cccs1,·,-80%[inhibitor],·,4,-0.5,0.8%
Cc1ccc(S(=O)(=O)CCC(=O)OCC(=O)c2c(N)n(CC(C)C)c(=O)n(C)c2=O)cc1,·,5%[15.4 µM],?,-11,-0.5,-24%
CCOc1cc(/C=C2/SC(=S)N(CC3CCCO3)C2=O)ccc1O (stereo unspecified),?,-7%,-16%,-4,-0.2,0.3%
Cc1cccc(C(=O)Oc2ccccc2-c2nnco2)c1,0.3,4%,3%,6,1.0,-0.3%
CCN1C(=O)[C@H]2[C@@H](c3ccc(C)cc3)N[C@]3(CCCN(CC4CCCCC4)C3=O)[C@H]2C1=O,·,-55%,·,7,0.1,1.7%
Cc1ccc(Nc2nc(N)c3ccccc3n2)cc1Cl,-2.3,-35%[inhibitor],-5%,·,·,-24%
COc1ncc(-c2ccc3c(c2)S(=O)(=O)c2cccc(C(=O)NCc4ccco4)c2C3=O)cn1,·,·,-11%,5,-0.1,-1.0%
CCn1c(COc2ccc3c(c2)CCCC3)nnc1SCC(=O)Nc1ccc(C(=O)OC)cc1,8.1,-1%,7%,-18,0.9,-5.9%
CCn1c(=O)n(CC(=O)NCc2ccco2)c(=O)c2ccccc21,5.3,6%,-2%[15.4 µM],26,1.5,-9.6%
CCOC(=O)C(=CNc1ccc(Oc2cncc(Cl)c2)nc1)C(=O)OCC,2.4,-1%[15.4 µM],-19%,-1,2.4,·
COc1ccccc1C(=O)NCc1ccco1,0.7,15%,-14%,7,0.8,-11%
CC1(OCON)CCCc2ccccc21 (stereo unspecified),-1.3,·,14%,-10,0.7,-2.8%
O=S(=O)(c1cc(C(F)(F)F)ccc1Cl)N1CCN(c2ccccn2)CC1,-2.1,0%,-4%,8,1.4,1.1%
COc1ccc(S(=O)(=O)N2CCCCCC2)cc1C(=O)OCC(=O)NC(N)=O,4.0,12%,10%,6,-0.5,-26%
CCNc1cc2oc(=O)c(CN3CCOCC3)c(C)c2cc1C,-0.5,13%,-7%,-7,-1.0,5.5%
CCCOc1ccc(C(=O)Nc2nc(C)c(Cc3ccc4c(c3)OCO4)s2)cc1,5.3,5%,11%,-1,-0.1,4.3%
Cc1cc(-c2ccco2)n(CC(=O)NCc2ccco2)n1,-0.3,-21%,5%,-16,-0.1,-2.0%
O=C(Nc1ccc(S(=O)(=O)NCC2CCCO2)cc1)c1ccc(Cl)cc1[N+](=O)[O-] (stereo unspecified),1.1,-59%[inhibitor],6%,-11,0.6,·
CC(=O)c1ccc(N2CCN(C(=S)Nc3ccccc3)CC2)cc1,0.4,-18%,?,27,0.4,-20%
CC(=O)C1=C(O)C(=O)N(c2ccc(O)cc2)C1c1ccc(C)cc1 (stereo unspecified),-5.3,27%,8%,3,0.3,·
CCCCc1ccc(CC(=O)O)cc1,-2.6,15%,-2%,-11,-0.9,-1.1%
Cc1nc(C(C)NC(=O)CCc2nnc(Cc3c[nH]c4ccccc34)o2)cs1 (stereo unspecified),-6.6,5%,5%,-6,0.5,·
COc1ccc(C(C(=O)OC(C)CN(C)C)c2ccccc2)cc1 (stereo unspecified),3.3,-4%,4%,29,0.7,-1.4%
CCN(CC)CCN1C(=O)C(=O)/C(=C(/O)c2ccccc2)C1c1ccccc1F (stereo unspecified),0.7,23%,3%,-15,0.0,-2.4%

# Single records, as listed above. Order of screens: Menin-MLL FL inh	gsp ag	gsp antagonist	TRPML1 inh	TRPML1 agonist	ClpP mod
# Entry for CCCOc1ccc(C(=O)Nc2nc(C)c(Cc3ccc4c(c3)OCO4)s2)cc1 : 5.3	5%	11%	-1	-0.1	4.3%
# Entry for COc1ccccc1C(=O)NCc1ccco1 : 0.7	15%	-14%	7	0.8	-11%

# (list continues)
SMILES,Menin-MLL FL inh,gsp ag,gsp antagonist,TRPML1 inh,TRPML1 agonist,ClpP mod
Cc1cccn2c(=O)c3cc(C(=O)N(C)C)n(C)c3nc12,-27,19%,14%,-2,-0.7,16µM*
Cc1ccc(N2C(=O)Nc3ccc(Br)cc3C2(O)C(=O)NCCN(C)C)cc1C (stereo unspecified),4.3,0%,-7%,5,0.1,·
O=S(=O)(c1ccc2ccccc2c1)n1nc(-c2ccco2)nc1NCc1ccc(F)cc1,·,·,·,6,2.9,-1.1%
CCOC(=O)C1=CCN(S(=O)(=O)c2ccccc2Br)C1c1cccc(F)c1 (stereo unspecified),·,·,·,-16,4.6,0.1%
CCc1c(C)nc2c(-c3ccccc3)c[nH]n2c1=O,0.8,-52%[inhibitor],-11%,30,1.9,·
COc1ccc(-n2nc3c(c2NC(=O)c2ccccc2)CS(=O)(=O)C3)cc1,·,-6%,·,-2,-0.2,-4.6%
O=C(O)c1cc(S(=O)(=O)N2CCCCCC2)c(Cl)cc1Cl,2.9,-3%,-12%,-5,-0.5,-1.9%
CN(C)C(=S)Nn1c(-c2ccccc2)nc2ccccc2c1=O,3.4,-31%[15.4 µM],2%,-4,-0.5,·
CCCn1c(CN2CCN(C(=O)OCC)CC2)nc2cc(NC(=O)CC)ccc21,0.3,-10%[15.4 µM],22%,10,-1.0,0.4%
O=C(Nc1cnn(Cc2ccc(F)cc2)c1)c1cc(-c2ccco2)on1,3.8,-11%[15.4 µM],8%,-12,1.7,·
Cc1ccc2oc(=O)c3cc(C(=O)NCCCN4CC(C)CC(C)C4)sc3c2c1 (stereo unspecified),2.0,-8%,2%,2,-0.9,3.6%
CCS(=O)(=O)N1CCN(C(=O)c2ccco2)CC1,1.2,-34%[inhibitor],7%,42,5.5,-0.2%
